nsP2pro inh: inhibitors of chikungunya virus nsP2 protease; Q8JUX6; FRET peptide cleavage, nsP2pro, fluorescence 1 h; 31,000 compounds, 1.1% hits; Potency, µM (top dose mostly 24.9 µM), for inactives: top-dose activity change, negative = inhibition, usual class: inhibitors; active means well fitted inhibition curve with a large enough effect; inconclusive means small, poorly fitted or top-dose-only effect; inactive means no such curve, though single readings can be large or run the other way; further: nearly all actives have a fitted effect of over 60% in size; a reference inhibitor and vehicle were the controls
Target sequence (Q8JUX6 whole entry, looked up): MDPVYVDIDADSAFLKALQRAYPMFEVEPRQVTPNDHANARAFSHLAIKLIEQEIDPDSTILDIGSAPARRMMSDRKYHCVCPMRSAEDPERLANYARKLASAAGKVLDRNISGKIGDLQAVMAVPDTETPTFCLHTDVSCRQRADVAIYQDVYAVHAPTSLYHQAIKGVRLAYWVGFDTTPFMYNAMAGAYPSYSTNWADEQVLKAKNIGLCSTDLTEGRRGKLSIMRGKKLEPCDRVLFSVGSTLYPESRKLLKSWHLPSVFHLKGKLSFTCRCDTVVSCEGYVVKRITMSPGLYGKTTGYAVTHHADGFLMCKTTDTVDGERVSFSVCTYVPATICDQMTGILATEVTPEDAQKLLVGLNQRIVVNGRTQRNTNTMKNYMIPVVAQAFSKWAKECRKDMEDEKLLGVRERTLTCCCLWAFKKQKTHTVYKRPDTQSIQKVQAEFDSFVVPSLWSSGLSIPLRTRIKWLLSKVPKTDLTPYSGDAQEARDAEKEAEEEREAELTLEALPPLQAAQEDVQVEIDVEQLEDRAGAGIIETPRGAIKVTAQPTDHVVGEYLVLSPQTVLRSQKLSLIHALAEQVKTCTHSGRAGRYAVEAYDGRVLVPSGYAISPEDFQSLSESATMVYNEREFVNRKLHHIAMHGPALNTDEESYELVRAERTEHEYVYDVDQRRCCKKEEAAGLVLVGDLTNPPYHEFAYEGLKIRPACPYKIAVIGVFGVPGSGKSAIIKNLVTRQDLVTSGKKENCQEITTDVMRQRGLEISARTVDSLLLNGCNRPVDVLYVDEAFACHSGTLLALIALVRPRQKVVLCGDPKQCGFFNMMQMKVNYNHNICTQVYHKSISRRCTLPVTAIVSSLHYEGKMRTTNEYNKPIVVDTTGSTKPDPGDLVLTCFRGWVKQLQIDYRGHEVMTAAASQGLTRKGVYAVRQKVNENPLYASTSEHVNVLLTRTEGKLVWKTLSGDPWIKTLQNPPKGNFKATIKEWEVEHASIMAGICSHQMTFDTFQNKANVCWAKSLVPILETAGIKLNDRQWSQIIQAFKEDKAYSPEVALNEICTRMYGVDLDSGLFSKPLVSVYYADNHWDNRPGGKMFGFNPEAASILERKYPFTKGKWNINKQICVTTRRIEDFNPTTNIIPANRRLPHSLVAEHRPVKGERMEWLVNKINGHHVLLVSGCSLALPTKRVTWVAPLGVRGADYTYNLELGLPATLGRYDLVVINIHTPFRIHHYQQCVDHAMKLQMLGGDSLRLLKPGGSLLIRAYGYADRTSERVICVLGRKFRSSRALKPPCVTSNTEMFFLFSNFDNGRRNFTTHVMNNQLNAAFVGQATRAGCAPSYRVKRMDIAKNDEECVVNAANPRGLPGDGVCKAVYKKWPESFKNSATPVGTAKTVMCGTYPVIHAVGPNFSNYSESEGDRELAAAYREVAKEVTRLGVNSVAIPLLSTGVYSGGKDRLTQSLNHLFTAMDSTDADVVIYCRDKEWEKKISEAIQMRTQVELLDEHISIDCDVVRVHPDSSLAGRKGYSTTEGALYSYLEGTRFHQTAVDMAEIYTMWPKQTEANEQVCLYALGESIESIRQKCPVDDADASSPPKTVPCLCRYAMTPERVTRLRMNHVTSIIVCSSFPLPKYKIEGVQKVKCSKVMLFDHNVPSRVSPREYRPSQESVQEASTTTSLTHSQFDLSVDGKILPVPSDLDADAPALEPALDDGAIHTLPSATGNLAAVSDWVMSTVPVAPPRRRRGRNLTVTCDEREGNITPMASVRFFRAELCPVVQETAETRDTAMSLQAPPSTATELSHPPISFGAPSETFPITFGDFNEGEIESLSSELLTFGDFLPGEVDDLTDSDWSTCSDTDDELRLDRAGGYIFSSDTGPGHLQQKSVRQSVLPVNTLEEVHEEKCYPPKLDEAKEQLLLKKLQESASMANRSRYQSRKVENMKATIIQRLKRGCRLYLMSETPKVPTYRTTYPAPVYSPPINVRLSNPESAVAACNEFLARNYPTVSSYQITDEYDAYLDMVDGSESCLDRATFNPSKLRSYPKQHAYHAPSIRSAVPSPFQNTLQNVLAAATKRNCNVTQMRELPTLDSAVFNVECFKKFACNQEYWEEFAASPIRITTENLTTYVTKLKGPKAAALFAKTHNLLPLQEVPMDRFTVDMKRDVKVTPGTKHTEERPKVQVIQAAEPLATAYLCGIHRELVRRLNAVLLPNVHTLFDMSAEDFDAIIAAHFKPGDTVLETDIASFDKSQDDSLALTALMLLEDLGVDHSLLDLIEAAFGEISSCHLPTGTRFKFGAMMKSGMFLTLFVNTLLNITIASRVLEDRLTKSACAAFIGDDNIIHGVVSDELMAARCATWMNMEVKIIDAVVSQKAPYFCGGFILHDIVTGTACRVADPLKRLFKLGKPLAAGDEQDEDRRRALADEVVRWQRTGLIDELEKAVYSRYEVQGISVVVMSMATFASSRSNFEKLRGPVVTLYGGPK
Starred values were filed as active, the others as inactive; [ ] = dose if it differs, or a comment. On the % scale 0 is the no-effect control and ±100 the full control effect; potency means the concentration at half of the fitted maximal effect. A portion of the library; rates above refer to the full screens.

The first 2 entries, ahead of the listing:
How did CCCN1CC2ON=C(C(=O)O)C2C1 (centres undefined) do in these assays?
nsP2pro inh: 12.6µM*

Results for Cn1cc([C@@H](NC(=O)c2ccc3c(c2)CCCC3)C2CC(O)C2)cn1 (some centres undefined) ?
nsP2pro inh: inactive

The whole of this part, repeating the preview:
How did CCCN1CC2ON=C(C(=O)O)C2C1 (centres undefined) do in these assays?
nsP2pro inh: 12.6µM*

Results for Cn1cc([C@@H](NC(=O)c2ccc3c(c2)CCCC3)C2CC(O)C2)cn1 (some centres undefined) ?
nsP2pro inh: inactive

What do the screens show for `CCCCc1ccc(NS(=O)(=O)c2ccc(C)c(C(=O)N3CCN(c4cccc(C)c4C)CC3)c2)cc1`?
nsP2pro inh: -0.1%[39.2 µM]

Results for c1cncc(-c2ccc3ncnc(NCc4ccc5c(c4)OCO5)c3c2)c1 ?
nsP2pro inh: inactive

How did COc1ccc(-c2noc(-c3cccn3CC(=O)Nc3cccc(Cl)c3C)n2)cc1F do in these assays?
nsP2pro inh: inactive

How did Cc1nc(C(C)C)sc1C(=O)N1C[C@@H](C)[C@](O)(C2CCC2)C1 do in these assays?
nsP2pro inh: inactive

How did Cc1ccc([C@@H]2CN(C(=O)CN3CCOC3=O)C[C@H]2NC(=O)C2CC2)cc1 do in these assays?
nsP2pro inh: 2.7%

Results for Cc1cccc2nc(NC3=NC(c4[nH]ncc4Cl)C4=C(CCCC4=O)N3)oc12 (centres undefined) ?
nsP2pro inh: -3.2%

Results for COc1ccc(C(=O)Nc2nnc(-c3ccco3)o2)cc1 ?
nsP2pro inh: -3.8%

How did Cc1cc(C)n2ncc(C(=O)Nc3ccc4c(c3)OCCO4)c2n1 do in these assays?
nsP2pro inh: 4.8%

How did COCC(=O)N[C@@H]1CCC[C@@H](C(=O)NC2CC2)CC(=O)N(C)C1 do in these assays?
nsP2pro inh: inactive

Results for COc1ccc(S(=O)(=O)N2CCCCC2)cc1C(=O)NC1CCS(=O)(=O)C1 (centres undefined) ?
nsP2pro inh: -12.8%

What do the screens show for `CCCn1nc2c(c1C)C(c1ccc(OCC(N)=O)c(Cl)c1)CC(=O)N2` (centres undefined)?
nsP2pro inh: -1.4%

Results for Cn1nnnc1Sc1ncnc2scc(-c3ccc(C#N)cc3)c12 ?
nsP2pro inh: inactive

What do the screens show for `Cc1ccccc1OCC(=O)N1CCN(Cc2ccc(=O)n(C)c2)CC1`?
nsP2pro inh: -4.5%

How did CN1CC(=O)Nc2cc(C(=O)O)ccc21 do in these assays?
nsP2pro inh: -8.2%

How did CCOc1ccc(NC(=O)c2ccc3nc(C(C)C)oc3c2)cc1 do in these assays?
nsP2pro inh: -12.8%

What do the screens show for `CCOC(=O)CCNC(=O)N1CCCC(c2nc(C(C)C)no2)CCNC(=O)CC1` (centres undefined)?
nsP2pro inh: inactive

What do the screens show for `O=C(C1CCCN1[S+](=O)([O-])c1cccs1)N1CCC(N2CCOCC2=O)CC1` (centres undefined)?
nsP2pro inh: inactive

What do the screens show for `CCCOc1ccc(CN2C(=O)C(=O)c3cccc(C)c32)cc1`?
nsP2pro inh: -15.2%

How did COc1ccccc1N1CCN(C(=O)c2cc3c(=O)oc4ccc(C)cc4c3s2)CC1 do in these assays?
nsP2pro inh: -13.9%

How did CCc1ccc(S(=O)(=O)c2nnn3c2nc(N2CCOCC2)c2sccc23)cc1 do in these assays?
nsP2pro inh: -12.6%

What do the screens show for `CC1(c2ccccc2)N(Cc2cccnc2)C(=O)OC12CCN(C(=O)Cc1ccc(Cl)cc1)CC2` (centres undefined)?
nsP2pro inh: inactive

How did COc1ccc(C2(C(=O)N3C[C@@H](CO)[C@H](c4ccccn4)C3)CC2)cc1 do in these assays?
nsP2pro inh: 1.8%

Results for CC(C)CC(=O)N1CCN(c2nnc3ccc(C(F)(F)F)cn23)CC1 ?
nsP2pro inh: inactive

Results for COc1cccc(/C=C/c2nc(C#N)c(N3CCN(C)CC3)o2)c1 ?
nsP2pro inh: -16.5%

How did Cc1ccc(C)c(NC(=O)CCN2C(=O)c3ccccc3Sc3ncccc32)c1 do in these assays?
nsP2pro inh: -32.4%

What do the screens show for `CN(C(=O)c1ccc2c(c1)N(Cc1cccc(Cl)c1)C(=O)c1ccccc1S2=O)C1CCCCC1` (centres undefined)?
nsP2pro inh: -7.4%

What do the screens show for `O=C(O)c1ccnc(-c2ccnc(NCCN3CCCCC3CO)n2)c1` (centres undefined)?
nsP2pro inh: 3.3%

How did COc1ccc(S(=O)(=O)N(CC(=O)Nc2ccccc2Br)Cc2ccccc2)cc1 do in these assays?
nsP2pro inh: -19.9%

Entries listed so far that contain a Cl atom (5):
How did COc1ccc(-c2noc(-c3cccn3CC(=O)Nc3cccc(Cl)c3C)n2)cc1F do in these assays?
nsP2pro inh: inactive

Results for Cc1cccc2nc(NC3=NC(c4[nH]ncc4Cl)C4=C(CCCC4=O)N3)oc12 (centres undefined) ?
nsP2pro inh: -3.2%

What do the screens show for `CCCn1nc2c(c1C)C(c1ccc(OCC(N)=O)c(Cl)c1)CC(=O)N2` (centres undefined)?
nsP2pro inh: -1.4%

What do the screens show for `CC1(c2ccccc2)N(Cc2cccnc2)C(=O)OC12CCN(C(=O)Cc1ccc(Cl)cc1)CC2` (centres undefined)?
nsP2pro inh: inactive

What do the screens show for `CN(C(=O)c1ccc2c(c1)N(Cc1cccc(Cl)c1)C(=O)c1ccccc1S2=O)C1CCCCC1` (centres undefined)?
nsP2pro inh: -7.4%

(continued)
How did O=C1CCCCC(Cc2ccccc2)(C(=O)NCc2ccc(F)cc2)N1 (centres undefined) do in these assays?
nsP2pro inh: -3.3%

Results for COCc1cccc(C(=O)N2CC[C@@]3(O)CCN(S(C)(=O)=O)C[C@H]3C2)n1 ?
nsP2pro inh: 2.4%

Results for O=C(c1cnccn1)N1CCC(Oc2cccnc2)C1 (centres undefined) ?
nsP2pro inh: -5.1%

Results for CC(C)(O)/C=C/C(=O)[C@](C)(O)[C@H]1[C@H](O)C[C@@]2(C)[C@@H]3CC=C4[C@@H](C[C@H](O[C@@H]5O[C@H](CO)[C@@H](O)[C@H](O)[C@H]5O)C(=O)C4(C)C)[C@]3(C)C(=O)C[C@]12C ?
nsP2pro inh: 13.0%[10 µM]

Results for CCOc1ccc2nc(NC(=O)c3cc(=O)c4cc(C)cc(C)c4o3)sc2c1 ?
nsP2pro inh: -11.6%

Results for CN(Cc1cc(C2CC2)n[nH]1)C(=O)C(c1ccc(F)cc1)N(C)C (centres undefined) ?
nsP2pro inh: inactive

How did COc1ccc(N(Cc2ccccc2)C(=O)c2nc(SC)ncc2Cl)cc1 do in these assays?
nsP2pro inh: -6.9%

How did Cc1cnc(CCNC(=O)Cc2ccncc2)n1CC1CC1 do in these assays?
nsP2pro inh: inactive

How did COc1cccc(NC(=O)c2sc3nc(C)c(C(=O)Nc4ccc(Cl)cc4)c(-c4ccc(Br)cc4)c3c2N)c1 do in these assays?
nsP2pro inh: -11.1%

What do the screens show for `Cc1nnc(-c2cc(-c3cccc(O)c3)ccn2)n1CCc1ccccc1`?
nsP2pro inh: -2.5%[39.2 µM]

How did COCCCNC(=O)c1cnc2c(c1)N(C(=O)Cc1cn(C)c3ccccc13)CCC2 do in these assays?
nsP2pro inh: -8.5%[39.2 µM]

How did S=C(Nc1cc(Cl)ccn1)N1CCN(c2cccc(Cl)c2Cl)CC1 do in these assays?
nsP2pro inh: inactive

What do the screens show for `O=[N+]([O-])c1ccc(S(=O)(=O)Nc2cnc3ccccc3c2)cc1`?
nsP2pro inh: 6.31µM*

How did NC(=O)C1CCN(c2ncc(-c3cccc(N4CCOCC4)c3)s2)CC1 do in these assays?
nsP2pro inh: inactive

How did CCCCCCc1c(C)c2c(cc(C)c3c(C)c(C)oc32)oc1=O do in these assays?
nsP2pro inh: -26.3%

Results for Cc1ccc(C2Cn3nnc(C(=O)N4CCC(C(=O)NCCc5ccccc5)CC4)c3CO2)cc1 (centres undefined) ?
nsP2pro inh: -8.3%

How did FC(F)Oc1ccccc1CN(CC1CCN(C2CCCC2)CC1)CC1CCCO1 (centres undefined) do in these assays?
nsP2pro inh: inactive

Results for COc1cc(C(CO)C(OC2OC(CO)C(O)C(O)C2O)c2ccc(O)c(OC)c2)ccc1O (centres undefined) ?
nsP2pro inh: inconclusive

What do the screens show for `CC(=O)Nc1nnc(SCc2cc(=O)c3cccc(C)c3[nH]2)s1`?
nsP2pro inh: -16.9%

How did CC(C)(C)C1CCc2nc(NC(=O)Cc3ccccc3)sc2C1 (centres undefined) do in these assays?
nsP2pro inh: -9.3%

What do the screens show for `CC(=O)N1CCN(C(=O)c2nc(N)nc3c2CCCC3)CC(O)C1` (centres undefined)?
nsP2pro inh: -3.2%

Results for O=C(CCn1c(=O)c2cccn2c2cccnc21)Nc1ccccc1Br ?
nsP2pro inh: -22.2%

Results for Cc1cc(C)nc(NC(=S)N2CCN(c3ccc(C(F)(F)F)cc3Cl)CC2)c1 ?
nsP2pro inh: -4.8%

What do the screens show for `CCOc1ccc(-n2nc(CO)c(C(=O)NCC(c3ccccc3)c3ccccc3)n2)cc1`?
nsP2pro inh: -13.1%

Results for CCc1ccccc1NC(=O)c1sc(-n2nc(C)c(Cc3ccc4c(c3)OCO4)c2C)nc1C ?
nsP2pro inh: -5.2%

What do the screens show for `CC(C)C(=O)N1CCC2(CCCCO2)CC1`?
nsP2pro inh: 2.2%

Results for CCCn1cnc2c(NCc3ccc(C)s3)nc(N[C@H](CC)CO)nc21 ?
nsP2pro inh: 12.6%

What do the screens show for `CCOC(=O)[C@@H]1CN([S+](=O)([O-])Cc2ccccc2)[C@H]2c3ccc(OC)cc3O[C@@H]12`?
nsP2pro inh: -8.0%

What do the screens show for `Cc1ccc(C)c(Cn2c(=O)n(Cc3ccc4c(c3)OCO4)c(=O)c3oc4ccccc4c32)c1`?
nsP2pro inh: -14.4%

How did O=C(c1ccccc1O)N(Cc1ccccc1)Cc1ccccc1 do in these assays?
nsP2pro inh: 1.7%

What do the screens show for `CC(=O)OCC(COC(C)=O)OC(C)=O`?
nsP2pro inh: -4.3%

How did CC1CCC(Nc2nc3c(-c4ccc(Cl)cc4)nnn3c3ccccc23)CC1 (centres undefined) do in these assays?
nsP2pro inh: -19.7%

Results for COc1ccccc1C(=O)Nc1ccccc1C(=O)OCc1cc(=O)n2c(C)csc2n1 ?
nsP2pro inh: -14.5%

How did CC[C@@H](CO)NCCN[C@@H](CC)CO do in these assays?
nsP2pro inh: inconclusive

How did CC(C)=CCC[C@](C)(O[C@@H]1O[C@H](CO[C@@H]2O[C@@H](CO)[C@H](O)[C@H]2O[C@@H]2OC[C@@H](O)[C@H](O)[C@H]2O)[C@@H](O)[C@H](O)[C@H]1O)[C@H]1CC[C@]2(C)[C@@H]1[C@H](O)CC1[C@@]3(C)CC[C@H](O[C@@H]4O[C@H](CO)[C@@H](O)[C@H](O)[C@H]4O[C@@H]4O[C@H](CO)[C@@H](O)[C@H](O)[C@H]4O)C(C)(C)C3CC[C@]12C (some centres undefined) do in these assays?
nsP2pro inh: -4.1%[5.1 µM]

How did Cc1ccc(CN2CCOCCNC(=O)[C@H]3CCCC[C@H]32)s1 do in these assays?
nsP2pro inh: -6.5%

Results for N#C/C(=C\c1ccccc1F)c1nc2ccccc2c(=O)[nH]1 ?
nsP2pro inh: -20.7%

What do the screens show for `O=C(Nc1ccccc1)N1CCC(N(C(=O)C2CC2)C2CCOCC2)CC1`?
nsP2pro inh: -3.9%

What do the screens show for `O=C(O)/C=C/c1ccc(O)c(O[C@@H]2O[C@H](CO)[C@@H](O)[C@H](O)[C@H]2O)c1`?
nsP2pro inh: 139.9%[activator]

What do the screens show for `O=C(CCc1ccsc1)N1CCC2(CC1)OCCCC2O` (centres undefined)?
nsP2pro inh: -12.9%

What do the screens show for `Cc1cc(C)nc(NC(=S)N2CCN(c3ccc(C(F)(F)F)cc3[N+](=O)[O-])CC2)c1`?
nsP2pro inh: -0.5%

How did Cc1ccc2oc(=O)c3cnn(CC(=O)NCc4ccccc4Cl)c3c2c1 do in these assays?
nsP2pro inh: -16.8%

Results for CN1C(=O)C(CC(=O)N2CC(O)C2)(Cc2ccccc2)c2ccccc21 (centres undefined) ?
nsP2pro inh: 2.0%

Results for CCN1CCN(C(=O)C2CCc3nnc(-c4cccc(C(F)(F)F)c4)n32)CC1 (centres undefined) ?
nsP2pro inh: 2.0%

What do the screens show for `COc1ccc(N2CCN(CCCNC(=O)Cn3c(=O)c4cccn4c4c(C)ccnc43)CC2)cc1`?
nsP2pro inh: -14.9%

Results for CCOC(=O)c1c(NC(=O)Nc2ccc(F)cc2)sc(C(=O)N(C)C)c1C ?
nsP2pro inh: -25.4%

Results for CCc1cnc2c(c1SCC(=O)N1CCCCC1)c(=O)n(C)c(=O)n2C ?
nsP2pro inh: -10.8%

How did CN1C(=O)C(c2ccccc2)CC12CCN(C(=O)c1ccc(F)cc1)CC2 (centres undefined) do in these assays?
nsP2pro inh: 2.6%

Results for C=C1CC[C@@H](O)[C@]2(C)CC[C@H]3C(=C)C(=O)O[C@@H]3[C@@H]12 ?
nsP2pro inh: 12.4%

How did Cc1cnc(C(=O)N2CCCCCNC(=O)[C@@H]3CCC[C@@H]32)cn1 do in these assays?
nsP2pro inh: -2.1%

2 successive records already listed:
How did CN1C(=O)C(c2ccccc2)CC12CCN(C(=O)c1ccc(F)cc1)CC2 (centres undefined) do in these assays?
nsP2pro inh: 2.6%

Results for C=C1CC[C@@H](O)[C@]2(C)CC[C@H]3C(=C)C(=O)O[C@@H]3[C@@H]12 ?
nsP2pro inh: 12.4%

The results go on.
Results for Cc1nc2ccc(S(=O)(=O)CCC(=O)Nc3ccc(C)c(C)c3)cc2s1 ?
nsP2pro inh: -17.8%

Results for O=S(=O)(NCCNc1nc(-c2ccco2)nc2ccccc12)c1ccccc1 ?
nsP2pro inh: -26.8%

How did CC(=O)O[C@@H]1C[C@@H](OC(C)=O)C(C)(C)/C=C/[C@H](C)[C@H](OC(C)=O)[C@@]2(O)C[C@H](C)[C@H](OC(=O)c3ccccc3)[C@@H]2/C=C/1C do in these assays?
nsP2pro inh: -11.9%[10 µM]

Results for O=C(c1cccs1)N1CCC(Nc2cccnc2)C1 (centres undefined) ?
nsP2pro inh: 2.3%
